Screening data as filed in PubChem.
2A StopGo: FMDV 2A StopGo reporter, luciferase signal; human cells with a luciferase reporter of 2A StopGo recoding; control for the full effect not named in the record; Potency, µM (series often up to 57.9 µM), inactives show at the highest dose signal change, negative = less light; 1.2% of 410,000 active; AID 1159524; active = well fitted falling curve with a large enough effect; inconclusive = small, poorly fitted or top-dose-only effect; inactive = no such curve, though single readings can be large or run the other way; tested in HEK293T cells; note: nearly all actives have a fitted effect of over 45% in size; luciferase light after 4 h
Active calls of the source: *; ? = inconclusive; & = joins results of further samples; [ ] = another dose, or the depositor's remark. % is set by controls: 0 for no effect and ±100 for the full control effect; potency is the fitted concentration of half-maximal effect. This is a subset; the hit share may differ from the screen's.

Sample of the layout:
| compound | 2A StopGo |
| --- | --- |
| Cc1c(C(=O)NCC2CCCN(C)C2)cnn1-c1nccc(-c2ccco2)n1 (configuration not stated) | -4.9% |
| COc1cc(=O)n2c(c1C(=O)NCc1cccc(F)c1)CCN(Cc1cccnc1)CC2 | -3.1% |

This part in full (from the top)
| compound | 2A StopGo |
| --- | --- |
| Cc1c(C(=O)NCC2CCCN(C)C2)cnn1-c1nccc(-c2ccco2)n1 (configuration not stated) | -4.9% |
| COc1cc(=O)n2c(c1C(=O)NCc1cccc(F)c1)CCN(Cc1cccnc1)CC2 | -3.1% |
| COc1ccccc1CCNc1ncnc2sc(C(=O)N3CCCC3)c(C)c12 | ? |
| COc1ccc(CN2C(=O)[C@H]3Cc4c([nH]c5ccccc45)C(C)(C)N3C2=O)cc1 | ? |
| COc1ccccc1CN1CCOc2ccc(CN3CCCCC3CO)cc2C1 (configuration not stated) | -3.3% |
| CN(CC1COCCO1)C(=O)c1cnn(-c2ncc3c(n2)-c2ccccc2CCC3)c1C1CC1 (configuration not stated) | 39.5%[activator] |
| Cc1c(CN2CCOc3c(cc(-c4ncc(C(F)(F)F)cc4Cl)cc3OCC3CCCO3)C2)cnn1C (configuration not stated) | 3.6% |
| COc1ccccc1C1CN(Cc2cccc(C)n2)Cc2ccccc2O1 (configuration not stated) | 0.0% |
| CCc1cc(C(=O)NCc2c(C)ncc3c2CCN(C(=O)C2=CCCC2)C3)no1 | -7.2% |
| COc1cccc(CNC(=O)c2c(OC)cc(=O)n3c2CCN(C(=O)c2csc(C)n2)CC3)c1 | 20.3% |
| CC(NC(=O)c1cc(F)ccc1F)c1nnc2n1CCN(Cc1ccco1)CC2 (configuration not stated) | -2.0% |
| COCc1c(C(=O)N2CCN(C)CC2)cnn1-c1ncc2c(n1)-c1ccccc1CCC2 | -10.2% |
| CC(C)(C)[C@H](NC(=O)c1ccc(N)c(Cl)c1)C(=O)N1CCC[C@H]1C(=O)N[C@H](C#N)CC(=O)O | -22.5% |
| COc1ccc2ccccc2c1CN1CCc2nnc(C(NS(C)(=O)=O)C(C)C)n2CC1 (configuration not stated) | -18.6% |
| CC(=O)NC1CCSC1=O (configuration not stated) | 0.8% |
| Nc1ncnc2c1ncn2[C@@H]1O[C@H](C(=O)NC2CC2)[C@@H](O)[C@H]1O | -14.9% |
| Cc1ccc2c(c1)CN(C(=O)CC(c1ccccc1)c1ccco1)CC(C)O2 (configuration not stated) | -5.8% |
| CSc1ncc(CNc2cc([N+](=O)[O-])ccc2C)c(N)n1 | ? |
| O=C(c1cccnc1)C1CCCN(Cc2ccc3c(c2)CN(C(=O)c2cnccn2)CCO3)C1 (configuration not stated) | -14.7% |
| CN(Cc1cccc2ncccc12)C(=O)c1cnn(-c2nccc(-c3ccccc3F)n2)c1C1CC1 | 3.98µM* |
| COCc1ccc(CN2CCOc3c(cc(-c4ccc(SC)cc4)cc3OC)C2)o1 | -3.4% |
| Cc1c(C(=O)N2CCCC(c3ccccc3)C2)sc2ncnc(NCCc3ccccn3)c12 (configuration not stated) | -11.7% |
| O=C(NC1CCCC1)c1cn(C2CCN(Cc3cccc4cccnc34)CC2)nn1 | -7.4% |
| COc1cccc(C(=O)N2CCCC(c3nc(SCCN4CCOCC4)ncc3C)C2)c1 (configuration not stated) | -24.2% |
| CCCCC[C@H](O)CC(=O)CCc1ccc(O)c(OC)c1 | -8.2%[97.4 µM] |

An excerpt taken from the entries so far, as a working copy:
| compound | 2A StopGo |
| --- | --- |
| Cc1c(C(=O)NCC2CCCN(C)C2)cnn1-c1nccc(-c2ccco2)n1 (configuration not stated) | -4.9% |
| COc1cc(=O)n2c(c1C(=O)NCc1cccc(F)c1)CCN(Cc1cccnc1)CC2 | -3.1% |
| COc1ccccc1CCNc1ncnc2sc(C(=O)N3CCCC3)c(C)c12 | ? |

The main list resumes, starting 2 compounds before the break.
| compound | 2A StopGo |
| --- | --- |
| COc1cccc(C(=O)N2CCCC(c3nc(SCCN4CCOCC4)ncc3C)C2)c1 (configuration not stated) | -24.2% |
| CCCCC[C@H](O)CC(=O)CCc1ccc(O)c(OC)c1 | -8.2%[97.4 µM] |
| CCCCCCCCCCC1=C(C)C(=O)C(OC)=C(OC)C1=O | -21.1%[97.4 µM] |
| COC(=O)[C@@H]1CCCN1Cc1ccc2c(c1)CN(Cc1cccn1-c1ncccn1)CCO2 | ? |
| COc1ccccc1N1CCN(c2nc(CNC(=O)c3sc(C)nc3C)nc3ccccc23)CC1 | ? |
| NC(=O)C1CCCN(Cc2ccc3c(c2)CN(Cc2cn[nH]c2-c2ccc(F)cc2)CCO3)C1 (configuration not stated) | -7.2% |
| C[C@@]12CCC[C@H]1C1CC[C@H]3C[C@H](O)CC[C@]3(C)C1CC2 (some centres not stated) | -19.7% |
| Cc1nc2ccc(C(=O)N3CCOc4ccc(CN5CCOCC5)cc4C3)cc2nc1C | 1.1% |
| COCC(=O)Nc1cc(C(=O)N2CC3CCCC2C3)c2c(c1)nc(-c1ccncc1)n2C (configuration not stated) | -5.0% |
| COc1cc(=O)n2c(c1C(=O)NC(C)c1ccco1)CCN(C(=O)c1cccc(C)c1)CC2 (configuration not stated) | 11.2% |
| CO[C@H]1[C@H](NC(=O)C(C)C)c2ccccc2C12CCN(Cc1cnc(N(C)C)s1)CC2 | 5.3% |
| COc1ccc(OC)c(C(=O)N2CCc3c(cnc(C)c3CNS(=O)(=O)N(C)C)C2)c1 | -15.3% |
| COc1ccc(N2C(=O)[C@@H]3C[C@H]2CN3Cc2ccc3nccnc3c2)cc1Cl | -13.7% |
| Cc1ccc2c(c1)CN(CCNC(=O)c1ccc3nc(C)[nH]c3c1)CC(C)O2 (configuration not stated) | -5.3% |
| COc1ccc(C(O)CNC(C)C)c(F)c1OC (configuration not stated) | 0.0% |
| Cc1csc(CN(C)C(=O)c2sc3ncnc(NCC4CCCO4)c3c2C)n1 (configuration not stated) | -3.7% |
| Cc1cc(C(=O)NCC2CCC3(CCN(Cc4cc(F)ccc4F)CC3)O2)n(C)n1 (configuration not stated) | 0.0% |
| Cc1ccc(CNc2nc(CN3CCSCC3)nc3ccccc23)o1 | 39.2%[activator] |
| O=C1CCN(Cc2ccc(-c3ccccc3)cc2)CCN1Cc1ccccn1 | -22.3% |
| COc1ccc(-c2ccc(C(=O)N(C)Cc3csc(C)n3)c(N3CCC(N4CCc5ccccc5C4)CC3)n2)cc1 | 51.7%[activator] |
| Cc1oc(-c2ccccc2NC(=O)C2CCC2)nc1CNC(=O)c1c(F)ccc(F)c1F | -8.1% |
| CN(CC(=O)N[C@H](CO)Cc1ccccc1)C(=O)[C@H](CCS(C)=O)NC(=O)[C@@H](N)Cc1ccc(O)cc1 (some centres not stated) | 11.0%[6.7 µM] |
| COc1cc(CN2C(=O)CC[C@@H]3CN(Cc4ccccn4)CC[C@@H]32)cc(OC)c1OC | -4.3% |
| CCc1nc2cc(C(=O)N(C)CC3CCCN(C)C3)cc(NC(=O)c3ccccc3OC)c2n1C (configuration not stated) | -6.2% |
| O=S(=O)(/C=C/c1ccccc1)N1CCC(n2c(C3CCCO3)nc3cccnc32)CC1 (configuration not stated) | 7.0% |
| O=C(Cn1cncn1)N1CCOc2ccc(CN3CCN(c4ccccc4)CC3)cc2C1 | -4.8% |
| CCC1(C2CCN(Cc3cc4ccccc4o3)CC2)NC(=O)N(CC2COc3ccccc3O2)C1=O (configuration not stated) | -24.9% |
| CN(Cc1ccco1)Cc1cc(-c2ccnc3cc(Cl)ccc23)ccc1O | -22.2% |
| COC(=O)[C@@H]1CCCN1Cc1ccc2c(c1)CN(Cc1ccc3c(c1)OCCO3)CCO2 | -12.2% |
| OC1(c2cccnc2)CCN(Cc2ccc3c(c2)CN(Cc2cccc4nccnc24)CCO3)CC1 | -0.2% |
| COc1cc(=O)n2c(c1C(=O)N(C)Cc1cscn1)CCN(C(=O)c1cccc(C)c1C)CC2 | 10.2% |
| C[C@@H]1OC(=O)[C@H]2C[C@H]3CCCC[C@@H]3[C@@H](/C=C/[C@H]3CCC[C@H](C)N3C)[C@@H]12 | -12.9% |
| O=CN1CCCN(C(=O)c2cc(NC(=O)c3ccccc3)cc3ncn(C4CCCC4)c23)CC1 | 4.9% |
| CNCC(O)c1cc(OCc2ccccc2)c(OCc2ccccc2)cc1F (configuration not stated) | -29.9% |
| COc1ccc(-n2ccc(-c3sc(NCc4cc(OC)c5c(c4)OCO5)nc3C)n2)cc1 | -24.4% |
| COc1cccc(O)c1CN1CCC2(CC1)c1ccccc1[C@@H](NC(=O)c1ccsc1)[C@@H]2OC | -6.8% |
| COCc1ccc(CN2CCOc3ccc(C4=CCCCC4)cc3C2)o1 | -7.6% |
| CCN1CCN(C(=O)c2cc(NC(=O)COC)cc3nc(-c4ccncc4)n(C)c23)CC1 | -8.7% |
| Cc1ccc(CN2C(=O)[C@@H]3Cc4c([nH]c5ccccc45)C(C)(C)N3C2=O)cc1 | ? |
| CCOC(=O)C1CCCCN1C(=O)c1cnn(-c2nccc(-c3cc(C)sc3C)n2)c1C1CC1 (configuration not stated) | 18.0% |
| N#Cc1c(Oc2cccc(OS(=O)(=O)CCCC(F)(F)F)c2)cccc1C(F)(F)F | -10.9% |
| Cc1ncc2c(c1CNC(=O)c1cncs1)CCN(C(=O)c1csc(-c3cccs3)n1)C2 | -4.0% |
| Cc1cc(C(=O)NCC2CCC3(CCN(Cc4ccc(-c5ccccc5)cc4)CC3)O2)n(C)n1 (configuration not stated) | ? |
| COCc1c(C(=O)NCC2CCCN(C)C2)cnn1-c1ncc2c(n1)-c1ccccc1CCC2 (configuration not stated) | 5.8% |
| CCCOc1ccc(Cl)cc1Nc1nc(NCCO)nc(N2CCCC2)n1 | -28.1% |
| Cc1ccc(C)c(CN2C[C@H](Sc3nc4ccccc4[nH]3)C[C@H]2C(=O)N2CCCN(C)CC2)c1 | 10.0% |
| Cc1ccc(CN2C[C@H](Sc3ccccn3)C[C@H]2C(=O)Nc2ccc3sc(C)nc3c2)s1 | 5.1% |
| Cc1cccc(CN2CCC(CNC(=O)Nc3ccccc3F)CC2)c1 | -20.6% |
| CC(NC(=O)Cc1cc(F)cc(F)c1)C(=O)NC(C(=O)OC(C)(C)C)c1ccccc1 (configuration not stated) | -10.1% |
| CN1N=C(C(=O)N2CCOc3ccc(CN4CCCC(C(=O)c5cccnc5)C4)cc3C2)CCC1=O (configuration not stated) | 1.1% |
| CCOC(=O)C1CCCCN1C(=O)c1ccc(-n2cc(NC(=O)c3cccnc3)cn2)cc1 (configuration not stated) | 11.3% |
| CCC1C(=O)NCCN1Cc1ccc2c(c1)CN(Cc1cccn1-c1ccc(Cl)cn1)CCO2 (configuration not stated) | -8.5% |

3 records picked at random from the list so far, as already listed:
| compound | 2A StopGo |
| --- | --- |
| Cc1c(CN2CCOc3c(cc(-c4ncc(C(F)(F)F)cc4Cl)cc3OCC3CCCO3)C2)cnn1C (configuration not stated) | 3.6% |
| Nc1ncnc2c1ncn2[C@@H]1O[C@H](C(=O)NC2CC2)[C@@H](O)[C@H]1O | -14.9% |
| CCOC(=O)C1CCCCN1C(=O)c1cnn(-c2nccc(-c3cc(C)sc3C)n2)c1C1CC1 (configuration not stated) | 18.0% |

Following part.
| compound | 2A StopGo |
| --- | --- |
| C[C@@H]1CN(Cc2ccc3c(c2)CN(Cc2cccc4c2OCO4)CCO3)C[C@H](C)O1 | -3.9% |
| COc1ccccc1Nc1nc(N2CCCC2)nc(N2CCOCC2)n1 | -17.4% |
| Cc1ccc(C(=O)Nc2cccc(-c3nc(CNC(=O)C4(C)CC4)c(C)o3)c2)s1 | 27.6% |
| c1ccc2sc(-c3cc4c(c(OC5CCOC5)c3)OCCN(Cc3cccn3-c3nccs3)C4)nc2c1 (configuration not stated) | -7.0% |
| O=C(Nc1cc(C(=O)Nc2ccc(S(=O)(=O)O)cc2)cc(C(=O)Nc2ccc(S(=O)(=O)O)cc2)c1)Nc1cc(C(=O)Nc2ccc(S(=O)(=O)O)cc2)cc(C(=O)Nc2ccc(S(=O)(=O)O)cc2)c1 | -26.6% |
| O=C(NCCN1CCOCC1)c1cnn(-c2nccc(-c3ccccc3F)n2)c1C1CC1 | 40.4%[activator] |
| COc1cc(C(O)CNC(C)C)cc(F)c1OC (configuration not stated) | -6.0% |
| COc1cc(OC)c(NC(=O)Nc2cc(C)on2)cc1Cl | 9.3% |
| CCn1c(-c2ccccc2F)nc2cc(C(=O)NC(c3ccccn3)C(F)(F)F)cc(NC(C)=O)c21 (configuration not stated) | 10.8% |
| CCc1nc2cc(C(=O)N[C@H]3CCCCNC3=O)cc(NC(=O)c3ccccc3OC)c2n1C | -20.0% |
| NCCc1cccc(O)c1 | -5.0%&-10.5% |
| COc1cc(=O)n2c(c1C(=O)N(C)Cc1nonc1C)CCN(Cc1ccccc1F)CC2 | -7.1% |
| N[C@@H](CCC(=O)N[C@@H](CS)C(=O)NCC(=O)O)C(=O)O | -5.6% |
